Biofilm kill mix – clotrimazole potentiators killing C. albicans biofilm, primary screen, 4-compound mixtures. C. albicans biofilm persisters + clotrimazole, fluorescence viability; primary screen in compound mixtures of four per well. inhibition, % at 7.6 µM. actives 0.02% (n = 120,000). AID 1242, 2008;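 active = inhibition above 30.3% in the primary screen of four-compound pools, then above 30% when the compound was retested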;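 note: compounds exposed to preformed 24 h biofilms for 48 h; the number belongs to the whole pool; some results filed as inactive read as strong as hits; inactives centre near 12; 0% = biofilm with clotrimazole alone and 100% = kill control; retested singly at about 60 µM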
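Incubation: 24 h biofilm formation, then 48 h compound exposure, 37 °C | Material: C. albicans biofilms | Buffer or medium: RPMI/MOPS medium, pH 7.0 | Measured by: 2-h Alamar Blue fluorescence, 535/590 nm excitation/emission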
Starred values were filed as active, the others as inactive. Only part of the results is shown; the hit share may differ from the screen's.

molecule | Biofilm kill mix
C#CCOCCOCCOCCNc1nc(N2CCN(C(=O)[C@H](CCCCN)n3cc([C@@H](N)CC(C)C)nn3)CC2)nc(N2CCN(C(=O)[C@H](CCCCN)n3cc([C@@H](N)CC(C)C)nn3)CC2)n1 | 12
COc1ccc(C(=O)Cn2c(C)nc([N+](=O)[O-])c2Br)cc1 | 19
CCC(=O)Nc1ccc(S(=O)(=O)Nc2ccc(Cl)nn2)cc1 | 15
CCOC(=O)C1(Cc2cccc(Cl)c2)CCCN(C(=O)c2cccnc2)C1 (stereo not given) | 14
Clc1ccc(/C=N/Nc2ncnc3nc[nH]c23)cc1 | 22
Clc1ccc(CNc2ccc(CNc3ncn[nH]3)cc2)cc1 | 1
Cc1ccc(C(=O)CN2C(=O)C(=O)N(Cc3ccccc3)C2=O)cc1 | 8
Cc1ccccc1NP(=O)(c1ccccc1)c1nc2ccccc2s1 (stereo not given) | 18
Cc1nc(SCC(=O)N2CCOCC2)c2c(=O)n(C)c(=O)n(C)c2n1 | 8
COc1ccc(-c2ccc([C@H]3[C@@H]4C=CCC[C@@]4(C)C(=O)N3Cc3ccccc3)c(F)c2)cc1OC | 9

Remaining list, next part.
molecule | Biofilm kill mix
Cc1cccc(N2C(=O)CC(Sc3ncn[nH]3)C2=O)c1 (stereo not given) | 8
CCN1CCN(S(=O)(=O)c2ccc(C)c([N+](=O)[O-])c2)CC1 | 10
CC(C)c1ccc(CNC(=O)CCc2ccccc2)cc1 | 12
CC(=O)O[C@H]1CC(C)(C)C(=C=C/C(C)=C/C=C/C(C)=C/C=C/C=C(C)/C=C/C=C(\C)C(=O)C[C@@]23O[C@]2(C)C[C@@H](O)CC3(C)C)[C@](C)(O)C1 | 10
CCCOc1cccc(C(=O)NC(=S)Nc2ccccc2)c1 | 15
CCOC(=O)C1=C(N)OC2=C(C(=O)CC(C)(C)C2)C1c1ccc(CC)s1 (stereo not given) | 20
COc1ccc(-n2c(-c3ccc(Cl)cc3)c[n+]3c2CCCCC3)cc1 | 13
CCOC(=O)C1CCCN(C(=O)c2cccc([N+](=O)[O-])c2C)C1 (stereo not given) | 9
COCC(=O)OCc1cc2cccc(C)c2[nH]c1=O | 0
S=C(c1ccc(-c2cc(Cl)ccc2Cl)o1)N1CCCCC1 | 8

Further entries:
molecule | Biofilm kill mix
COc1cc(OC)cc(C(=O)N=c2sc3ccccc3n2C)c1 | 7
CCN(CC)S(=O)(=O)c1ccc(Cl)c(NC(=O)CCCCl)c1 | 22
COC(=O)c1c(NC(=O)CN2C(=O)NC3(CCC(C(C)(C)C)CC3)C2=O)sc2c1CCCCC2 (stereo not given) | 14
Cc1ccc(-c2cc(C(F)(F)F)n3ncc(C(=O)N4CCCCC4c4cccnc4)c3n2)cc1 (stereo not given) | 11
Cc1ccnc2nc(C(=O)OCC(=O)c3c[nH]c4ccccc34)nn12 | 22
CCOc1cc(C=C2C(=O)c3ccccc3C2=O)ccc1OCC(=O)Nc1ccc(C)cc1 | 16
CSCC(=O)NS(=O)(=O)c1ccc(C)cc1 | 15
Cc1ccc2nc(SC(C(=O)c3ccccc3)c3ccccc3)nc(C)c2c1 (stereo not given) | 10
Nc1ccc(C(=O)c2cccs2)cc1 | 10
COc1ccc(Cn2c(-c3ccc(OC)cc3)nc3c(c(=O)c4ccccc4n3C)c2=O)cc1 | 17

Further entries:
molecule | Biofilm kill mix
O=C(CSCc1ccc(Cl)cc1)Nc1cc([N+](=O)[O-])ccc1O | 7
O=C1C(Cl)=C(N2CCCCC2)C(=O)C(Cl)=C1c1cnc(N2CCCCC2)s1 | 1
O=C(OCCN1C(=O)c2cccc3c(N4CCOCC4)ccc(c23)C1=O)c1ccc(Cl)cc1Cl | -8
Cc1cc(-c2n[nH]c(=S)n2-c2ccccc2)nn1C | 16
Cc1cc(C)cc(NC(=O)CSc2ncc(S(=O)(=O)c3ccccc3)c(=O)[nH]2)c1 | 10
CC(C)c1nc2oc3c(N(C)CCO)ncnc3c2c2c1CCC2 | 20
COc1cc(CO)ccc1OCc1ccc(Cl)nc1 | 29
CCN(CC)S(=O)(=O)c1ccc(C)c(NC(=S)N2CCN(Cc3ccc4c(c3)OCO4)CC2)c1 | 12
CC(C)CNC(=O)C(=O)NCc1ccccc1 | 9
O=C(CSC1=NCCS1)NC(c1ccccc1)c1ccccc1 | 4

Going on with the list:
molecule | Biofilm kill mix
COc1cc(/C=N/N2CCOCC2)ccc1OCc1ccc(Cl)cc1 | 4
NC(=O)c1nsc(C(=O)N(CC(=O)NC2CCCC2)c2cnc3ccccc3c2)c1N | 21
CCn1c(=O)c(C(=O)CC#N)c(N)n(Cc2ccccc2)c1=O | 20
CCOC(=O)N1CCN(Cc2ccc(O)c3ncccc23)CC1 | 24
Cc1ccc(-n2c(C)cc(/C=N/NC(=O)Cn3c4ccccc4c(=O)c4ccccc43)c2C)cc1 | 14
Cc1ccc(NC2=NCCC2)cc1Cl | 15
CCCC(=O)N1N=C(c2ccccc2)CC1c1cn(C)c2ccccc12 (stereo not given) | 17
COC(=O)c1cc(NS(=O)(=O)c2ccc(F)cc2)ccc1N1CCOCC1 | 22
O=C(Cc1ccccc1)NCc1ccc(-n2cccc2)cc1 | 10
Cc1ccc(C(=O)OC(C)CN2CCN(C)CC2)cc1 (stereo not given) | 21

(more compounds)
molecule | Biofilm kill mix
Cc1ccc(-n2cc(CN3CCC(CO)(Cc4cccc(C(F)(F)F)c4)CC3)cn2)cc1 | 17
O=C(CCC(=O)NNC(=O)c1ccccc1[N+](=O)[O-])NCc1ccccc1 | 19
Cc1ccc(NNC(=O)c2ccc(Cl)cc2)nn1 | 8
O=C(CSc1n[nH]c(=O)n1Cc1ccco1)c1ccc(F)cc1 | 23
O=c1c2ccccc2nnn1CCO | 19
O=C(CSc1ccccc1)NC(=O)NCc1ccccc1 | 19
O=C1NC(c2ccccc2OC(F)F)Oc2ccccc21 (stereo not given) | 8
COc1ccccc1NC(=S)Nc1ccc2cn[nH]c2c1 | 13
CC(C)CCNC(=O)C(=O)NCCC1=CCCCC1 | 14
N#C/C(=C\c1c(N2CCOCC2)nc2ccccn2c1=O)C(=O)NC1CCS(=O)(=O)C1 (stereo not given) | 8

Entries from the list above containing a CF3 group, in the order listed:
molecule | Biofilm kill mix
Cc1ccc(-c2cc(C(F)(F)F)n3ncc(C(=O)N4CCCCC4c4cccnc4)c3n2)cc1 (stereo not given) | 11
Cc1ccc(-n2cc(CN3CCC(CO)(Cc4cccc(C(F)(F)F)c4)CC3)cn2)cc1 | 17

Remaining list, next part:
molecule | Biofilm kill mix
O=C(Nc1nc2cc3c(cc2s1)OCCO3)c1ccncc1 | 14
O=C(c1cc(-c2ccccn2)nc2ccc(Br)cc12)N1CCN(S(=O)(=O)c2ccccc2)CC1 | 7
COc1ccc(NC(=S)NC2CCCCC2)c(OC)c1 | 14
COc1cc([C@@H]2c3cc4c(cc3[C@H](O)[C@H]3COC(=O)[C@H]23)OCO4)cc(OC)c1OC | 16
Cc1cc(C)cc(N=C2SC(CC(=O)Nc3ccccc3)C(=O)N2CCN2CCOCC2)c1 (stereo not given) | 13
O=C(Nc1nnc(-c2ccc(F)cc2)s1)Nc1ccccc1F | 24
Cc1oc(-c2ccccc2)cc1C(=O)NC1CCN(Cc2ccccc2)CC1 | 16
Cc1ccc(S(=O)(=O)NCc2ccc(C(=O)NC3CC3)cc2)cc1 | 16
O=C(/C=C/c1ccc(N2CCC(c3ccccc3)=N2)cc1)c1ccccc1 | 15
CC(C)N(C(=O)COC(=O)[C@H](C)NC(N)=O)c1ccccc1 | 1

29 neighbouring entries out of the list so far, for reference:
molecule | Biofilm kill mix
CC(C)CNC(=O)C(=O)NCc1ccccc1 | 9
O=C(CSC1=NCCS1)NC(c1ccccc1)c1ccccc1 | 4
COc1cc(/C=N/N2CCOCC2)ccc1OCc1ccc(Cl)cc1 | 4
NC(=O)c1nsc(C(=O)N(CC(=O)NC2CCCC2)c2cnc3ccccc3c2)c1N | 21
CCn1c(=O)c(C(=O)CC#N)c(N)n(Cc2ccccc2)c1=O | 20
CCOC(=O)N1CCN(Cc2ccc(O)c3ncccc23)CC1 | 24
Cc1ccc(-n2c(C)cc(/C=N/NC(=O)Cn3c4ccccc4c(=O)c4ccccc43)c2C)cc1 | 14
Cc1ccc(NC2=NCCC2)cc1Cl | 15
CCCC(=O)N1N=C(c2ccccc2)CC1c1cn(C)c2ccccc12 (stereo not given) | 17
COC(=O)c1cc(NS(=O)(=O)c2ccc(F)cc2)ccc1N1CCOCC1 | 22
O=C(Cc1ccccc1)NCc1ccc(-n2cccc2)cc1 | 10
Cc1ccc(C(=O)OC(C)CN2CCN(C)CC2)cc1 (stereo not given) | 21
Cc1ccc(-n2cc(CN3CCC(CO)(Cc4cccc(C(F)(F)F)c4)CC3)cn2)cc1 | 17
O=C(CCC(=O)NNC(=O)c1ccccc1[N+](=O)[O-])NCc1ccccc1 | 19
Cc1ccc(NNC(=O)c2ccc(Cl)cc2)nn1 | 8
O=C(CSc1n[nH]c(=O)n1Cc1ccco1)c1ccc(F)cc1 | 23
O=c1c2ccccc2nnn1CCO | 19
O=C(CSc1ccccc1)NC(=O)NCc1ccccc1 | 19
O=C1NC(c2ccccc2OC(F)F)Oc2ccccc21 (stereo not given) | 8
COc1ccccc1NC(=S)Nc1ccc2cn[nH]c2c1 | 13
CC(C)CCNC(=O)C(=O)NCCC1=CCCCC1 | 14
N#C/C(=C\c1c(N2CCOCC2)nc2ccccn2c1=O)C(=O)NC1CCS(=O)(=O)C1 (stereo not given) | 8
O=C(Nc1nc2cc3c(cc2s1)OCCO3)c1ccncc1 | 14
O=C(c1cc(-c2ccccn2)nc2ccc(Br)cc12)N1CCN(S(=O)(=O)c2ccccc2)CC1 | 7
COc1ccc(NC(=S)NC2CCCCC2)c(OC)c1 | 14
COc1cc([C@@H]2c3cc4c(cc3[C@H](O)[C@H]3COC(=O)[C@H]23)OCO4)cc(OC)c1OC | 16
Cc1cc(C)cc(N=C2SC(CC(=O)Nc3ccccc3)C(=O)N2CCN2CCOCC2)c1 (stereo not given) | 13
O=C(Nc1nnc(-c2ccc(F)cc2)s1)Nc1ccccc1F | 24
Cc1oc(-c2ccccc2)cc1C(=O)NC1CCN(Cc2ccccc2)CC1 | 16

(next part)
molecule | Biofilm kill mix
Cn1cc(CN2CCN(c3cnccn3)CC2)c(-c2cccc(Cl)c2)n1 | 13
C=CCc1cc(Cl)ccc1OCCCNC(C)CC (stereo not given) | 12
Cc1ccc2nc(C)c(C(=O)N/N=C/c3ccc(N4CCOCC4)cc3)cc2c1 | 16
CS(=O)(=O)N(CC(=O)NCc1ccco1)c1ccc(OCc2ccccc2)cc1 | -3
COc1cccc(-c2nc(-c3ccc4c(c3)NC(=O)CO4)cs2)c1 | 17
COc1ccc(/C=C/C(=O)NC(C)CCc2ccccc2)cc1OC (stereo not given) | 16
CCCCOc1ccc(C(=O)NCC(=O)OCC(=O)N2CCN(S(=O)(=O)c3ccc(C)cc3C)CC2)cc1 | 9
CC(=O)Nc1cccc(C(=O)OCC(=O)NCc2ccc(F)cc2)c1 | 6
Cn1nccc1NS(=O)(=O)c1ccc(F)cc1 | 17
COc1ccc(/C=C/C(=O)c2ccc(O)cc2)cc1CN1CCOCC1 | 15

Remaining list, next part.
molecule | Biofilm kill mix
O=C1CCCc2oc3c(c21)CCCC3 | 16
O=[N+]([O-])c1ccc(N2CCCC2)nc1N1CCCC1 | 21
CCN(CC)CCCNc1oc(/C=C/c2ccccc2)nc1C#N | 16
Clc1nc(Cl)nc(NCCC2=CCCCC2)n1 | 10
CN(C)CCN(C(=O)/C=C/c1cccs1)c1nc2c(F)cc(F)cc2s1 | 12
Cc1ccccc1C(=O)O/N=C(\N)c1ccncc1 | 14
C[N+](C)(C)CCN1C(=O)CSC1=O | -10
CCCNC(=O)CSc1nc(COc2ccccc2)nc2ccccc12 | 18
Cc1cc([N+](=O)[O-])nn1CC(=O)N/N=C/c1ccc(O)cc1O | 14
COc1ccc(/C=N/NC(=O)c2cc(Br)ccc2O)cc1Cn1cc(Cl)cn1 | 7

Continued.
molecule | Biofilm kill mix
CCNc1nc(NC(C)(C)C)nc(N2CCCCC2)n1 | 1
CC(C)Cn1c(=O)c2c(nc3n2CCS3)n(C)c1=O | 12
Cc1ccc(NC(=O)CSc2nccn2C)cc1S(=O)(=O)N1CCOCC1 | 6
COc1cccc(C(=O)Nc2cccc(C(C)=O)c2)c1 | -12
Cc1ccc(-n2cc(CN3CCC(O)(c4ccccn4)CC3)c(-c3ccc(F)cc3)n2)cc1 | -10
Cc1ccc(C(=O)c2coc3cc([N+](=O)[O-])c(O)c([N+](=O)[O-])c23)cc1 | 11
O=[N+]([O-])c1ccc(N2CCOCC2)cc1NC(c1ccccc1)c1ccccc1 | 12
Cc1ccc(NS(=O)(=O)c2cccc(C(=O)NCC(c3cccs3)N(C)C)c2)cc1 (stereo not given) | 12
Cc1ccc(Cn2ncn(-c3ccccc3)c2=O)cc1 | 13
COc1cccc(C2CC(=O)C3=C(C2)Nc2ccccc2N(C(=O)CCC(=O)O)C3c2ccc(F)cc2)c1 (stereo not given) | 26

Further entries:
molecule | Biofilm kill mix
O=C(NNS(=O)(=O)c1ccccc1)c1ccc(S(=O)(=O)N2CCCCC2)cc1 | 9
CCC(=O)N/C(N)=N/c1nc2ccccc2o1 | 9
Cc1ccc(Nc2ccc(C(=O)NCCc3ccccc3)cn2)cc1 | 8
O=C(/C=C/c1ccccc1)NC(=S)Nc1ncccn1 | 16
Cn1nc(NC(=O)C(C)(C)C)c2c(F)cccc21 | 3
O=[N+]([O-])c1cccnc1NCc1cccs1 | 13
CCC(C)C(NS(=O)(=O)c1ccc(C)cc1)C(=O)O (stereo not given) | 9
CC1CCCC(C)N1C(=S)NCc1ccco1 (stereo not given) | 1

As entered above:
For Biofilm kill mix, CCC(=O)N/C(N)=N/c1nc2ccccc2o1 shows 9
For Biofilm kill mix, O=C(NNS(=O)(=O)c1ccccc1)c1ccc(S(=O)(=O)N2CCCCC2)cc1 shows 9
